Assay outcomes from PubChem.
hNpr1 antagonist: Natriuretic polypeptide receptor (hNpr1) antagonism - Primary qHTS | Atrial natriuretic peptide receptor 1 (Homo sapiens), P16066 | HEK293 hNpr1 GloSensor cGMP, ANP-stimulated luminescence | Potency, µM (series often up to 46.3 µM), for inactives: at the highest dose activity change, negative = inhibition, hits mostly inhibitors | hit rate 1.6% among 76,000; active = well fitted inhibition curve with a large enough effect; inconclusive = small, poorly fitted or top-dose-only effect; inactive = no such curve, though single readings can be large or run the other way;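 further: nearly all actives have a fitted effect of over 60% in size; nearly all hits also lower the signal before the agonist is added; a reference antagonist and vehicle were the controls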
Target sequence (P16066 whole entry, looked up): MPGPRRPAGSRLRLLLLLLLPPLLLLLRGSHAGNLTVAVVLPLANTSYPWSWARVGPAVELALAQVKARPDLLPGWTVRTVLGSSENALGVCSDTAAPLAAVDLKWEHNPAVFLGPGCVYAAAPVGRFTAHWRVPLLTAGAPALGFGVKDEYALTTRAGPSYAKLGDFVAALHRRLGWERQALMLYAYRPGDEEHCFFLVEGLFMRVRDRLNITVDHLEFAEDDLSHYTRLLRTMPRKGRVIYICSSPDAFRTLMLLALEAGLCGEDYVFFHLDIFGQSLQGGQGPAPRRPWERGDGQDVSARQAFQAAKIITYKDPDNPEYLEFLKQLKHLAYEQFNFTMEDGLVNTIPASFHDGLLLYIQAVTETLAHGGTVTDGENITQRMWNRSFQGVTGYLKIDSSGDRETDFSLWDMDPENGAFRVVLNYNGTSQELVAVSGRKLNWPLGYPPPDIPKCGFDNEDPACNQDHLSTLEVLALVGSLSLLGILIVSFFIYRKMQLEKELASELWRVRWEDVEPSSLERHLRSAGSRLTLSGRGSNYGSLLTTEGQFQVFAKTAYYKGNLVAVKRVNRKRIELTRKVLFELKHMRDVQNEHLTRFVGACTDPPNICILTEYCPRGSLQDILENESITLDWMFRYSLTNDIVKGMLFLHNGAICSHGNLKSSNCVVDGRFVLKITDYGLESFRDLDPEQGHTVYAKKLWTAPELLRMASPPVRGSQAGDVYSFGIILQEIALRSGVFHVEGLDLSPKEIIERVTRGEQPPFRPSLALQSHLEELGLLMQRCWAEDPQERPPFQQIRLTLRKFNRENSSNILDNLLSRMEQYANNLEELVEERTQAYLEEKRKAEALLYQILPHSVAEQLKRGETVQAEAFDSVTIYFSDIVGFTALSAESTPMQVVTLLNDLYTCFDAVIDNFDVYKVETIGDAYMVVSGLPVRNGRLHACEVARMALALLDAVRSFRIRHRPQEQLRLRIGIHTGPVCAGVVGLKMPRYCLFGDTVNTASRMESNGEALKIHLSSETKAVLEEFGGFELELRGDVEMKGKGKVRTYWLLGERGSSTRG
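Compound pre-incubated 30 min at room temperature on GloSensor-loaded HEK293 cells stably carrying hNpr1 and the pGS-40F cGMP biosensor. Stimulation uses hNppA at 0.1 nM final; luminescence is taken at baseline and 20 min post-agonist.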
The depositor's hits bear a star; ? = inconclusive; & = joins results of further samples; [ ] = dose if it differs, or a comment. On the % scale 0 is the no-effect control and ±100 the full control effect; potency means the concentration at half of the fitted maximal effect. Not all compounds are listed, so the mix of outcomes need not match the whole.

| Compound | hNpr1 antagonist |
| --- | --- |
| Cc1noc(C)c1-c1cc2c(cc(C)n2CCN(C)C)c(-c2ccccc2)n1 | 0%[70.6 µM] |
| CCC(=O)Nc1ccc(-c2c(-c3ccc(C)cc3)nn(-c3ccc(F)cc3)c2OC(C)=O)cc1 | -18% |
| Cc1cn2nc(C(=O)NCc3cccs3)cc2c(N2CCCC2)n1 | 12% |
| O=C1N[C@@H]2CCN(C(=O)c3ccccc3)[C@@H]2C(=O)N1c1ccc(Oc2ccccc2)cc1 | 0%[70.6 µM] |
| Cc1ccc(C2Cn3nnc(C(=O)NC4CCN(Cc5ccccc5)CC4)c3CO2)cc1 (configuration not stated) | ? |
| COc1cccc(S(=O)(=O)N2CCC3(CC2)CC(CC(=O)N2CCCC2)CCO3)c1 (configuration not stated) | 7% |
| COc1ccccc1-c1n[nH]c2c1CC(=O)N(Cc1ccccc1)C2 | -9%[70.6 µM] |
| COc1ccc(-c2[nH]ncc2C(=O)NC2CCCc3c2[nH]c2ccccc32)cc1 (configuration not stated) | -10% |
| NC(=O)NCC(=O)N[C@H]1CC[C@H](Nc2nccc(-c3ccncc3)n2)C1 | -3% |
| CN(Cc1cnc(N)nc1)C(=O)C(c1cccc(F)c1)N(C)C (configuration not stated) | 3% |
| O=C(NC1CCCCC1)O[C@@H]1CO[C@H]2[C@@H]1OC[C@@H]2NC(=S)Nc1cccc2ccccc12 | -15% |
| CCCS(=O)(=O)NCC1Cn2cccc2C(=O)N1C (configuration not stated) | 1% |
| COC[C@@H]1CN(S(=O)(=O)c2ccccc2C)C[C@H]1c1ccncc1 | -21% |
| COC[C@@H]1CN(Cc2ccc(OC)cc2)C[C@H]1C(=O)N(C)C | -1% |
| CCCN(CC1CCOC1)C(=O)c1c(F)cccc1F (configuration not stated) | 4% |
| CCOCCn1c(=O)[nH]c2cc(C(=O)N(C)CCc3noc(C)n3)ccc21 | 3% |
| O=C1Nc2ccc(-c3cccs3)cc2C(=O)N2CC[C@H](NS(=O)(=O)c3cccs3)[C@@H]12 | -17% |
| CO[C@H]1C(=O)N(C2CCN(C(=O)Cn3ccc(C)n3)CC2)[C@H]1c1ccncc1 | 3% |
| O=c1ncn(CC2CC2)c2ccc(-c3ccoc3)nc12 | 3%[70.6 µM] |
| O=C(N[C@@H]1CCOC[C@H]1Oc1ccccn1)c1cc(C2CC2)no1 | 2% |
| COc1ccc(C(=O)N2CCCC(c3nc(-c4cccnc4)no3)CCNC(=O)CC2)cc1 (configuration not stated) | -13% |
| CC(C)n1c(CNC(=O)Cn2nc3c(cc2=O)CCCCC3)nc2ccccc21 | -5% |
| CCn1cc(S(=O)(=O)N2CCC(c3noc(-c4ccccn4)n3)C2)cn1 (configuration not stated) | 8% |
| COc1cccc(CN2CCOC[C@H](O)C2)c1 | 1%[70.6 µM] |
| Cc1cc(C(=O)N2C[C@@H](CO)[C@H](c3ccccn3)C2)nn1C | -1% |
| COCCOC1CCOC2(CCN(C(=O)Cn3c(=O)oc4ccccc43)CC2)C1 (configuration not stated) | 5% |
| Cc1ccc(OC2CN(C(=O)c3ccc(F)cc3)C2)cc1C | -13%[70.6 µM] |
| CNS(=O)(=O)c1ccc(C2CC(=O)Nc3cc(O)c(OC)cc32)cc1 (configuration not stated) | 2% |
| CN(C)c1cccc(-c2cnc(Nc3ccncc3)c3c2CCO3)c1 | -13%[70.6 µM] |
| Cc1nccn1CCNC(=O)CCC[C@H]1NC[C@@H]2C[C@H]1CN(Cc1ccccc1)C2 | -26% |
| Cc1cc(Cn2cc3c4c(cccc42)[C@H](CC(C)C)N[C@H](C(=O)NC(C)C)C3)no1 | -5%[70.6 µM] |
| CNC(=O)[C@@H]1C[C@@H](O)CN1C1CCN(C(=O)CCCc2ccccc2)CC1 | -7% |
| O[C@@H]1C[C@@H](c2nc(Cc3ccc(F)cc3Cl)no2)N(Cc2ncc[nH]2)C1 | 0%[70.6 µM] |
| Cc1ccc(CNC(=O)N2CC[C@H]3C(=O)NCCCCCCN(Cc4ccncc4)[C@@H]3C2)cc1 | 0% |
| CCc1nc(N2CCC(n3c(=O)[nH]c4ccccc43)CC2)c2cnn(C)c2n1 | -22% |
| COCC(=O)N1CCC2(CC1)CN(c1ccccc1)C2=O | 8% |
| O=C(O)CCn1ncc2cc(OCC3CCN(C(=O)C4CCCC4)CC3)ccc21 | 1%[70.6 µM] |
| COCC1CN(C)CC12CCN(Cc1ccc(F)c(Cl)c1)CC2 (configuration not stated) | -18% |
| CCOC(=O)C1(Cc2cccc(OC)c2)CCCN(C(=O)CCn2ccnc2C)C1 (configuration not stated) | 0% |
| O=C1c2ccccc2OCC2(CCN([S+](=O)([O-])c3cccc(C(F)(F)F)c3)C2)N1[S+](=O)([O-])c1cccc(C(F)(F)F)c1 (configuration not stated) | 5% |
| COc1cc(NC(=O)C2CCCCC(=O)N2)cc(OC)c1 (configuration not stated) | -16% |
| COc1ccc(-n2nc(C3CCN(C(=O)c4ccc(C)cc4)CC3)[nH]c2=O)cc1 | 7% |
| COc1cc(Cl)cc(CN2CCN(c3ncccc3C#N)CC2)c1OC | -11% |
| Cc1ccc(C(=O)N2CCC3(C2)C(=O)N(CCc2ccccc2)c2ccccc23)cc1 (configuration not stated) | -10%&-18% |
| COCCO[C@H]1C(=O)N(C2CCN(Cc3ccc(C#N)cc3)CC2)[C@H]1c1ccncc1 | -7% |
| O=C(O)C[C@@H]1CCN(C(=O)C2CCCCC2)C[C@@H]1CC1=NCCc2ccccc21 | 4%[70.6 µM] |
| Cc1cc(C)c(C(=O)N2CCCC3(CN(C)C(=O)O3)C2)cn1 (configuration not stated) | 2% |
| CC(=O)Nc1cccc(-c2cnc3n[nH]c(-c4ccc5c(c4)OCO5)c3n2)c1 | -26%[70.6 µM] |
| CCNC(=O)N[C@@H]1C=C[C@@H](c2c(C)nn(-c3ccccc3[N+](=O)[O-])c2C)C1 | -27%[70.6 µM] |
| O=C(CC1CCCC1)N1CC2CC(C1)[C@H]1CCCC(=O)N1C2 (some centres not stated) | 1% |

(continued)
| Compound | hNpr1 antagonist |
| --- | --- |
| Cc1nnc2ccc(NC3CCCC3)nn12 | 5% |
| CCn1ncc(N2CCC(NC(=O)c3cccc(OC)c3OC)CC2)cc1=O | 9% |
| O=C(NC1CC1)c1ccccc1OCC1CCCN(Cc2cn[nH]c2-c2cccs2)C1 (configuration not stated) | 1% |
| Cc1noc(C)c1S(=O)(=O)N1CCCC(c2[nH]ccc2C(N)=O)C1 (configuration not stated) | 10% |
| COCc1noc([C@@H]2CC(F)(F)CN2C(=O)CCn2cccn2)n1 | 5% |
| NC(=O)[C@H]1C[C@@H](O)[C@H](O)[C@H]2[C@@H]1SC(=NCC1CCCCC1)N2Cc1ccc(F)cc1 | 5%[70.6 µM] |
| CCC1Oc2ccc(NC(=O)Cc3cccs3)cc2CN(C(CC)c2ccccc2)C1=O (configuration not stated) | -17% |
| Cc1noc([C@@H]2CN(C(=O)Cc3c(F)cccc3Cl)C[C@H]2C(N)=O)n1 | 8% |
| COc1ccc(O[C@H]2COCCN(C(=O)C3CCCC3)C2)cc1 | 0%[70.6 µM] |
| Cc1cccc(NC(=O)Cn2c(N3CCCCC3)nc(C)c(C)c2=O)c1 | -1% |
| Cn1cnnc1CC1CCN(C(=O)c2cc3c([nH]c2=O)CCCC3)CC1 | 0% |
| CCOc1nccnc1NC1CCN(C(=O)Cc2cccs2)CC1 | 7% |
| O=C1N[C@@H]2CCN(S(=O)(=O)c3ccccc3)[C@@H]2C(=O)N1c1ccc(Oc2ccccc2)cc1 | 5% |
| CC(C)C[C@@H](NC(=O)C1=C[C@@H](NC(=O)Nc2ccc(F)cc2F)[C@@H](O)[C@H](O)C1)C(N)=O | 1% |
| CN(C(=O)C(C)(C)C)C1CCc2ccccc21 (configuration not stated) | 8%[70.6 µM] |
| CCCNC(=O)N1CCCC2(CCC(=O)N(CCc3ccccc3)C2)C1 (configuration not stated) | 9% |
| COCCC(=O)N[C@@H]1CN(Cc2ccccc2)C[C@H]1CO | 5% |
| Cc1noc2c(N(C)C)cc(-c3cccnc3)nc12 | 1%[70.6 µM] |
| CCCNC(=O)C1COC2(CCN(C(=O)CC(C)(C)C)CC2)N1C(=O)c1cccc(OC)c1 (configuration not stated) | 3% |
| CC(C)S(=O)(=O)N1CC[C@H]2C(=O)NCCCCCCN(Cc3ccncc3)[C@@H]2C1 | -2% |
| COc1cccc(Nc2ncc3c(n2)C(C)(C(=O)Nc2ccc(OC)nc2)CC3)c1 (configuration not stated) | 4%[70.6 µM] |
| COCCCNC(=O)c1cccc2c1CCN2C(=O)Nc1cccc(C)c1 | 2µM* |
| O=C(C1CCCC1)N1CCCCC12Cc1ccccc1NC2=O (configuration not stated) | 0%[70.6 µM] |
| COc1ccc(-c2noc([C@@H]3C[C@@H](O)CN3C(C)C)n2)cc1 | 2%[70.6 µM] |
| N#Cc1ccccc1CN1CCNc2nc(CNCc3ccccc3)n(Cc3ccccc3)c2C1=O | ? |

The final two entries of the part before come first, to join the parts.
| Compound | hNpr1 antagonist |
| --- | --- |
| COc1ccc(-c2noc([C@@H]3C[C@@H](O)CN3C(C)C)n2)cc1 | 2%[70.6 µM] |
| N#Cc1ccccc1CN1CCNc2nc(CNCc3ccccc3)n(Cc3ccccc3)c2C1=O | ? |
| CC(C)Cc1cc(CN2CCC(CO)(CN3CCCC3)CC2)[nH]n1 | -3% |
| Cc1noc(-c2cccc(OC3CN(C(=O)CCCc4ccccc4)C3)c2)n1 | -4% |
| CCCS(=O)(=O)N1CCCC(c2[nH]ccc2C(N)=O)C1 (configuration not stated) | 4% |
| Cc1nnnn1CCCn1nc(C2CCCNC2)n(-c2ccccc2)c1=O (configuration not stated) | -1% |
| COc1cccc(C(=O)N2CCc3nc(-c4ccc(Cl)cc4)nc(-c4ccccc4)c3C2)c1 | -3% |
| CNC(=O)[C@@H]1C[C@H](Oc2ccccc2)CN1C(=O)Nc1ccccc1 | 6% |
| CN(Cc1ccccc1)c1ccc2nnc(-c3ccccn3)n2n1 | -6%[70.6 µM] |
| COc1ccc(OC)c(CN2C[C@H]3[C@H](C2)[S+](=O)([O-])C(C)(C)C(=O)N3CCOc2ccccc2)c1 | 3% |
| CCN1CCN(CCN2CC3(CCN(C(=O)c4ccc(C)nc4)CC3)OC2=O)CC1 | 3% |
| CC(=O)N1CC[C@@H](CC(=O)O)[C@@H](CC2=NCCc3ccccc32)C1 | 0%[70.6 µM] |
| Cc1cnc(C)c(N2CCN(C(=O)CCCc3c[nH]c4ccccc34)CC2)n1 | 5% |
| CCc1nc2c(c(-c3ccc(Cl)cc3)n1)CN(C(=O)c1cccc(Cl)c1)CC2 | -16% |
| Cc1ccc(C(=O)NC2CCN(c3cc(-c4ccc(F)cc4)[nH]n3)CC2)c(C)c1 | -16% |
| Cc1c(F)cccc1NC(=O)N1CCC(OC2CCN(Cc3ccccc3)CC2)CC1 | -8% |
| Cc1cn2nc(C(=O)Nc3ccc(F)cc3)cc2c(N(C)Cc2ccccc2)n1 | -3% |
| COC(=O)[C@@H](C)NC(=O)[C@@H]1CN(C(=O)c2cccc(F)c2)CCN1C(=O)C1CCCCC1 | 4% |
| CC(C)c1ccc(NC(=O)N[C@H]2CO[C@H]3[C@@H]2OC[C@H]3OC(=O)Nc2cccc(C(F)(F)F)c2)cc1 | ? |
| O=C1CCCCC(CNC(=O)c2ccco2)N1 (configuration not stated) | 1% |
| OCC1(Cc2ccccc2Cl)CCN(Cc2cc3ccccc3o2)CC1 | ? |
| Cn1cnc(S(=O)(=O)N2CCC(c3noc(-c4cccnc4)n3)C2)c1 (configuration not stated) | 3% |
| CCn1ccc(C(=O)N2CCCn3cc(-c4cccc(C#N)c4)nc32)n1 | 3% |
| COc1ccccc1CN1C[C@H]2[C@H](C1)[S+](=O)([O-])C(C)(C)C(=O)N2Cc1ccccc1 | -7%[70.6 µM] |
| COc1ccc(-c2noc([C@@H]3CCCN3C(=O)Cc3cccc(F)c3)n2)cc1OC | -4% |
| COc1ccc(C(=O)N2[C@@H]3CC[C@H]2CC(NC(=O)c2ccc(F)cc2)C3)cc1OC (some centres not stated) | 2% |
| COc1cc(Cl)cc(CN2CCC3(CCOCC3)CC2)c1OC | 2% |

Individual results from the results shown:
Cc1cnc(C)c(N2CCN(C(=O)CCCc3c[nH]c4ccccc34)CC2)n1 @ hNpr1 antagonist: 5%
Cc1c(F)cccc1NC(=O)N1CCC(OC2CCN(Cc3ccccc3)CC2)CC1 @ hNpr1 antagonist: -8%
CC(C)Cc1cc(CN2CCC(CO)(CN3CCCC3)CC2)[nH]n1 @ hNpr1 antagonist: -3%
CN(Cc1ccccc1)c1ccc2nnc(-c3ccccn3)n2n1 @ hNpr1 antagonist: -6%[70.6 µM]

Continuation:
| Compound | hNpr1 antagonist |
| --- | --- |
| COCc1noc([C@@H]2CC(F)(F)CN2C(=O)c2cc(C)on2)n1 | -3% |
| CN(C)C1CCN(c2ccc(-c3nc(CCCc4ccccc4)no3)cn2)CC1 | -15% |
| COc1ccc(-c2nn(-c3ccc(F)cc3)c(OC(C)=O)c2-c2ccc(NC(C)=O)cc2)cc1OC | -16% |
| O=C(c1ccc[nH]1)N1CCC2(CC1)N=C(c1ccc(Cl)cc1)NO2 | ? |
| CCc1ccc(N2CC(c3noc(-c4ccc5ncccc5c4)n3)CC2=O)cc1 (configuration not stated) | -22% |
| COc1cc(F)cc(-c2ncc3c(n2)OCCN(Cc2ccc(F)cc2F)C3=O)c1 | ? |
| CN(CCc1ccccc1)C(=O)C1CCCN(C2CCN(C(=O)C3CC3)CC2)C1 (configuration not stated) | -9% |
| NC(=O)C1CCN([C@H]2[C@@H]3OC[C@@H](O3)[C@@H](NCc3ccncc3)[C@@H]2O)CC1 | 0%[70.6 µM] |
| COc1ccc(-c2cc(N3CCC(NC(=O)c4cccc(F)c4)CC3)n[nH]2)cc1 | -23% |
